# Vaccinia stage: Vaccinia orthopox stage-specific inhibition; AID 1053133; activity change (mCherry), % (no concentration beside the values); actives 0.01% (n = 89,000); Vaccinia-infected cells, mCherry/Venus stage reporter fluorescence; active compounds read low; some inactives read as strong as hits;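 active means mCherry past -33% and 40 or more points under the early reporter, replicates agreeing; inconclusive means past -33% without that gap or agreement; tested in A549 cells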;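 further: scaled between vehicle wells and reference inhibitor wells; 23 nL library stock went into each well; one replicate is shown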
# Vaccinia stage Venus: recorded beside Vaccinia stage, whose call it bears; activity change (Venus), %; measured here: Venus reporter, other viral stage;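 negative = less Venus signal; first of two replicates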
# An asterisk follows results filed as active; ? = inconclusive; · = no result given; & = joins results of further samples. A portion of the library; rates above refer to the full screens.
structure	Vaccinia stage	Vaccinia stage Venus
C[C@H](CO)N1C[C@H](C)[C@@H](CN(C)S(=O)(=O)c2cn(C)cn2)Oc2ncc(/C=C/c3ccccc3)cc2C1=O	-0.4	-10.8
O=C(N[C@H]1CC[C@H](CCNS(=O)(=O)c2ccc(F)cc2)O[C@H]1CO)c1ccccn1	6.7	7.8
CC(C)C#Cc1ccc([C@@H]2[C@@H](CO)N(C(=O)C3CCOCC3)[C@H]2C#N)cc1	13.5	7.3
O=C(Nc1ccc(Cl)cc1)N[C@H]1CC[C@@H](CCNC(=O)c2ccccc2F)O[C@H]1CO	-11.5	-7.5
CC(C)NC(=O)N(C)C[C@@H]1OCCCC[C@H](C)Oc2ccc(NC(=O)Nc3ccccc3)cc2C(=O)N([C@H](C)CO)C[C@@H]1C	22.5	-0.3
O=C(C[C@H]1C[C@H]2c3cc(NC(=O)Nc4ccc(C(F)(F)F)cc4)ccc3O[C@H]2[C@@H](CO)O1)NCc1ccc2c(c1)OCO2	7.2	0.8
CCCC#Cc1ccc2c(c1)O[C@H](CN(C)C(=O)CN(C)C)[C@@H](C)CN([C@@H](C)CO)S2(=O)=O	?	·
Cc1ccc(S(=O)(=O)Nc2ccc3c(c2)C(=O)N([C@H](C)CO)C[C@H](C)[C@@H](CN(C)S(=O)(=O)c2cccs2)OCCCC[C@H](C)O3)cc1	?	·
O=C(C[C@@H]1CC[C@H](NC(=O)C2CCOCC2)[C@@H](CO)O1)NCC1CC1	19.6	12.7
C/C=C/c1ccc([C@@H]2[C@@H](CO)N3C(=O)CN(C(=O)Nc4ccc(F)cc4)C[C@H]23)cc1	-24.8	-13.0
CCCC(=O)Nc1ccc2c(c1)C(=O)N(C)C[C@H](OC)[C@H](C)CN(C(=O)c1cnccn1)[C@@H](C)CO2	29.3	6.8
O=C(CN1CCOCC1)NCC[C@H]1CC[C@H](NC(=O)Nc2ccccc2)[C@H](CO)O1	20.0	15.0
C[C@H](CO)N1C[C@H](C)[C@H](CN(C)Cc2ccccc2)Oc2ccc(NC(=O)Cc3ccccc3)cc2CC1=O	-23.4	-14.0
C[C@@H]1CN([C@H](C)CO)C(=O)c2cc(NC(=O)Nc3ccc4c(c3)OCO4)ccc2O[C@@H](C)CCCCO[C@@H]1CN(C)S(=O)(=O)c1ccc(Cl)cc1	5.6	1.6
COc1ccc2c3c(n(C)c2c1)[C@H](CO)N(C(=O)C1CCCC1)CC31CCN(CC2CCCC2)CC1	?	·
C[C@@H]1CN([C@@H](C)CO)C(=O)c2ccccc2-c2ccccc2CO[C@@H]1CN(C)C(=O)C1CC1	17.0	8.2
O=S(=O)(Cc1ccccc1)N1CCCCN2[C@H](CO)[C@H](c3ccc(-c4cncnc4)cc3)[C@@H]2C1	8.3	-1.5
O=C(C[C@H]1CC[C@@H]2[C@H](COC[C@H](O)CN2C(=O)c2ccc3c(c2)OCO3)O1)NC1CCC1	3.3	9.5
CO[C@@H](CN(C)CC1CCOCC1)[C@@H](C)CN(C(=O)Nc1ccc(F)cc1)[C@H](C)CO	18.6	9.2
CNC[C@@H]1Oc2ccc(NC(=O)Cc3cn(C)c4ccccc34)cc2C(=O)N([C@H](C)CO)C[C@H]1C	11.7	-4.6
C[C@H]1CN([C@@H](C)CO)S(=O)(=O)c2ccc(-c3ccccc3)cc2O[C@@H]1CN(C)Cc1ccccc1C(=O)O	2.2	0.4
C[C@@H]1CCCCO[C@H](CN(C)Cc2ccncc2)[C@@H](C)CN([C@H](C)CO)C(=O)c2cc(NC(=O)Nc3cccc4ccccc34)ccc2O1	7.3	3.0
C[C@@H]1CN([C@H](C)CO)C(=O)c2cc(/C=C/c3ccccc3)cnc2O[C@@H]1CN(C)S(=O)(=O)c1ccc(F)cc1	?	·
Cc1noc(C)c1S(=O)(=O)Nc1ccc2c(c1)C(=O)N([C@H](C)CO)C[C@H](C)[C@@H](CN(C)C(=O)Nc1ccc(F)cc1)OCCCC[C@H](C)O2	-0.9	-6.7
C[C@@H]1CN([C@@H](C)CO)C(=O)Cc2cc(NC(=O)CCCCCC(=O)Nc3ccccc3N)ccc2O[C@@H]1CN(C)C	11.7	7.6
C[C@H]1CN([C@@H](C)CO)C(=O)c2cc(NS(=O)(=O)c3ccccc3)ccc2O[C@H]1CN(C)C(=O)NC1CCCCC1	13.5	8.7
CO[C@@H]1CN(C)C(=O)c2ccc(NC(=O)C3CC3)cc2OC[C@H](C)N(C(=O)C2CCCCC2)C[C@@H]1C	-0.6	1.8
CN1C(=O)c2cc(NC(=O)C3CC3)ccc2OC[C@@H]2O[C@@H](CC(=O)NCCN3CCCC3)CC[C@H]21	14.0	6.6
CN(C[C@H]1[C@H](c2ccccc2)[C@@H](CO)N1C(=O)c1ccccc1)C(=O)C1CCC1	13.6	0.2
CC(=O)N(C)C[C@H]1Oc2cc(C#CCC3CCCC3)ccc2S(=O)(=O)N([C@H](C)CO)C[C@@H]1C	-11.3	-12.9
C[C@H](CO)N1C[C@H](C)[C@@H](CN(C)S(=O)(=O)c2cccs2)Oc2c(NS(C)(=O)=O)cccc2C1=O	45.9	23.0
O=C(Cc1ccccc1)N1CC[C@H]2[C@H](CO)Nc3ccc(C#Cc4ccccc4)cc3[C@H]21	-9.9	-4.0
CO[C@H]1CN(C)C(=O)c2ccc(NC(=O)c3cc(C)on3)cc2OC[C@H](C)N(C)C[C@@H]1C	19.9	16.3
CN1C(=O)c2cc(NC(=O)Nc3ccccc3Cl)ccc2OC[C@H]2O[C@H](CC(=O)NCCCN3CCOCC3)CC[C@H]21	1.1	-1.4
COc1ccc(NC(=O)Nc2ccc3c(c2)C(=O)N([C@@H](C)CO)C[C@@H](C)[C@@H](CN(C)CC2CCCCC2)O3)cc1	-28.5	-23.4
Cc1cccc(-c2ccc([C@@H]3[C@H]4CN(C(=O)c5ccccc5)CC(=O)N4[C@H]3CO)cc2)c1	-24.1	-26.3
Cn1cnc(S(=O)(=O)N2CC[C@@H]3[C@H]2c2cc(-c4ccccc4)ccc2N[C@@H]3CO)c1	9.2	17.6
COc1ccccc1C#Cc1ccc2c(c1)O[C@H](CN(C)Cc1cncnc1)[C@@H](C)CN([C@H](C)CO)S2(=O)=O	-9.3	-5.3
C[C@@H]1CN([C@H](C)CO)S(=O)(=O)c2ccc(C3=CCCCC3)cc2O[C@@H]1CN(C)Cc1cccnc1	?	·
CN1[C@@H]2c3ccc(C4=CCCCC4)c(=O)n3C[C@@H]2[C@@H](CO)[C@@H]1C(=O)NCc1ccccc1	-13.2	-0.9
C[C@@H]1CN([C@@H](C)CO)C(=O)Cc2cc(NC(=O)Nc3cccc4ccccc34)ccc2O[C@H]1CN(C)Cc1ccc(Cl)c(Cl)c1	-6.5	3.5
O=C(C[C@@H]1C[C@H]2c3cc(NC(=O)Nc4ccc(C(F)(F)F)cc4)ccc3O[C@H]2[C@@H](CO)O1)NCCc1ccccc1	-4.4	1.9
CCCc1cn(CC[C@H]2CC[C@@H](NC(=O)C3CCOCC3)[C@H](CO)O2)nn1	2.3	2.7
C[C@@H]1CN([C@@H](C)CO)C(=O)c2cccc(NC(=O)c3nc4ccccc4s3)c2O[C@H]1CN(C)CC1CC1	-13.3	-4.9
O=C(Nc1ccc2c(c1)OCO2)N[C@@H]1CC[C@@H](CCNC(=O)C2CCCC2)O[C@H]1CO	1.9	-4.3
N#C[C@H]1[C@@H](c2ccc(C3=CCCCC3)cc2)[C@H](CO)N1C(=O)CN1CCOCC1	-7.6	-14.0
CN1c2ccc(-c3ccccc3)cc2[C@@H]2[C@@H](CCN2C(=O)Cc2cccnc2)[C@H]1CO	0.1	-3.4
O=S(=O)(N[C@H]1CC[C@@H](CCn2cc(C3CC3)nn2)O[C@@H]1CO)c1ccc(F)cc1	-11.2	-13.5
O=C(C[C@@H]1C=C[C@@H](NC(=O)C2CC2)[C@@H](CO)O1)NCc1ccncc1	6.7	8.7
C[C@H](CO)N1C[C@H](C)[C@H](CN(C)CC2CCCCC2)Oc2c(NC(=O)c3nc4ccccc4s3)cccc2C1=O	?	·
C[C@@H]1CN([C@@H](C)CO)C(=O)c2cc(NC(=O)CCN3CCOCC3)ccc2O[C@H]1CN(C)Cc1ccncc1	-1.6	-5.8
Cc1ccc(S(=O)(=O)N(C)C[C@@H]2OCc3cnnn3CCCC(=O)N([C@H](C)CO)C[C@H]2C)cc1	-0.7&11.2	-4.2&3.6
C[C@@H]1CN([C@H](C)CO)C(=O)c2cc(NS(=O)(=O)c3ccc(F)cc3)ccc2O[C@@H](C)CCCCO[C@@H]1CN(C)C(=O)CCC(F)(F)F	-31.5	-13.6
Cc1ccc(S(=O)(=O)N(C)C[C@@H]2Oc3ncc(-c4cccc(F)c4)cc3C(=O)N([C@H](C)CO)C[C@@H]2C)cc1	-15.0	-13.6
C[C@H]1CCCCO[C@@H](CN(C)S(=O)(=O)c2ccc(Cl)cc2)[C@@H](C)CN([C@@H](C)CO)C(=O)c2cc(NC(=O)CCC(F)(F)F)ccc2O1	?	·
COc1ccc(NC(=O)N(C)C[C@@H]2Oc3ccc(NS(=O)(=O)c4ccccc4)cc3C(=O)N([C@@H](C)CO)C[C@H]2C)cc1	15.7	13.5
CO[C@@H]1CN(C)C(=O)c2ccc(NS(C)(=O)=O)cc2OC[C@@H](C)NC[C@@H]1C	3.6	8.8
O=C(C[C@@H]1CC[C@H]2[C@@H](COC[C@H](O)CN2Cc2nccs2)O1)NCc1ccc(-c2ccccc2)cc1	?	·
O=C(Nc1ccccc1)N1CCCCN2[C@@H](CO)[C@@H](c3ccc(-c4ccccc4)cc3)[C@@H]2C1	?	·
C[C@H]1CN([C@@H](C)CO)C(=O)c2cc(NC(=O)Cn3cnnn3)ccc2O[C@@H]1CN(C)C(=O)Nc1cccc2ccccc12	18.5	11.3

# 3 structures from above, arranged by length of the SMILES, smallest number first:
structure	Vaccinia stage	Vaccinia stage Venus
Cc1ccc(S(=O)(=O)N(C)C[C@@H]2OCc3cnnn3CCCC(=O)N([C@H](C)CO)C[C@H]2C)cc1	-0.7&11.2	-4.2&3.6
C[C@@H]1CN([C@@H](C)CO)C(=O)c2cc(NC(=O)CCN3CCOCC3)ccc2O[C@H]1CN(C)Cc1ccncc1	-1.6	-5.8
C[C@@H]1CN([C@H](C)CO)C(=O)c2cc(NS(=O)(=O)c3ccc(F)cc3)ccc2O[C@@H](C)CCCCO[C@@H]1CN(C)C(=O)CCC(F)(F)F	-31.5	-13.6

# New compounds follow
structure	Vaccinia stage	Vaccinia stage Venus
CCC(=O)N(C)C[C@H]1Oc2ncc(C#Cc3ccccc3)cc2C(=O)N([C@H](C)CO)C[C@H]1C	7.0	3.0
Cc1noc(C)c1S(=O)(=O)N(C)C[C@@H]1OCc2cnnn2CCCC(=O)N([C@@H](C)CO)C[C@@H]1C	20.7	13.9
C[C@@H]1CCCCO[C@@H](CN(C)Cc2ccncc2)[C@@H](C)CN([C@@H](C)CO)C(=O)c2cc(NC(=O)Nc3ccccc3)ccc2O1	4.6	-3.6
O=C(c1cccnc1)N1C[C@@H]2[C@H](c3ccccc31)[C@@H](CO)N2C(=O)Nc1cccc(F)c1	-1.1	11.2
COc1cccc(NC(=O)N[C@H]2CC[C@H](CC(=O)N3CCCCC3)O[C@@H]2CO)c1	7.6	4.1
O=C(C[C@@H]1C[C@H]2c3cc(NC(=O)c4cccnc4)ccc3O[C@H]2[C@@H](CO)O1)NCC1CC1	11.7	13.2
C/C=C/c1cnc2c(c1)C(=O)N([C@H](C)CO)C[C@H](C)[C@@H](CN(C)Cc1ccc3c(c1)OCO3)O2	-8.7	-4.6
Cc1ccc(S(=O)(=O)N[C@H]2CC[C@H](CCn3cc(C4(O)CCCC4)nn3)O[C@H]2CO)cc1	-9.6	-9.3
O=C(Nc1ccc(C(F)(F)F)cc1)N1[C@@H]2CNC[C@H]1C2c1ccc(-c2ccc(F)cc2)cc1 (stereo partly drawn)	-3.3	2.1
COc1ccc2c3c(n(C)c2c1)[C@H](CO)N(C(=O)c1ccccc1)CC31CN(C(C)=O)C1	11.1	7.7
Cc1noc(C)c1S(=O)(=O)N(C)C[C@@H]1Oc2c(NS(=O)(=O)c3ccc(F)cc3)cccc2C(=O)N([C@H](C)CO)C[C@@H]1C	6.7	-2.1
CO[C@H](CN(C)CC1CCOCC1)[C@H](C)CN(C(=O)Nc1ccc(F)cc1)[C@@H](C)CO	7.6	8.5
O=C(C[C@@H]1C=C[C@@H](NS(=O)(=O)c2ccccc2F)[C@@H](CO)O1)NCCCN1CCOCC1	18.1	18.2
C[C@H](CO)N1C[C@H](C)[C@@H](CN(C)C(=O)c2cnccn2)Oc2ncc(C#CCC3CCCC3)cc2C1=O	-1.9	-0.3
C[C@H](O)C#Cc1ccc([C@@H]2[C@H]3CN(C(=O)Nc4ccccc4)CCCCN3[C@H]2CO)cc1	-27.9	-16.0

# Full records, looked up by structure:
# Listed for Cc1ccc(S(=O)(=O)N(C)C[C@@H]2Oc3ncc(-c4cccc(F)c4)cc3C(=O)N([C@H](C)CO)C[C@@H]2C)cc1 → Vaccinia stage = -15.0; Vaccinia stage Venus = -13.6
# Listed for CC(C)C#Cc1ccc([C@@H]2[C@@H](CO)N(C(=O)C3CCOCC3)[C@H]2C#N)cc1 → Vaccinia stage = 13.5; Vaccinia stage Venus = 7.3

# Remaining list, next part:
structure	Vaccinia stage	Vaccinia stage Venus
C[C@@H]1CN([C@H](C)CO)C(=O)c2cc(C#C[C@@H](C)O)cnc2O[C@@H]1CN(C)C(=O)Nc1ccc(F)cc1	19.1	19.0
C[C@@H]1CCCCO[C@@H](CN(C)S(=O)(=O)c2ccc(Cl)cc2)[C@@H](C)CN([C@H](C)CO)C(=O)c2cc(NC(=O)Cc3ccccc3)ccc2O1	-1.7	-10.8
CN(C)C(=O)c1cccc(-c2ccc([C@@H]3[C@H](CO)N4CCCCN(Cc5cccnc5)C[C@@H]34)cc2)c1	9.3	-10.2
COc1ccc(CN(C)C[C@@H]2OCCCC[C@@H](C)Oc3ccc(NS(=O)(=O)c4cccs4)cc3C(=O)N([C@@H](C)CO)C[C@H]2C)cc1	-33.2	-31.5

# Screening data deposited in PubChem by Broad Institute.
